Cruzain noTriton: qHTS Assay for Promiscuous and Specific Inhibitors of Cruzain (without detergent). Cruzipain (Trypanosoma cruzi), P25779. purified cruzain, Z-FR-AMC fluorescence, no detergent. Potency, µM, without a hit: max response, negative = inhibition, usual class: inhibitors. 2.3% of 200,000 active. AID 1476, 2009;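 further: plate controls were enzyme without inhibitor for no effect and buffer without enzyme for full effect; nearly all actives have a fitted effect of over 40% in size; top concentration of the series not given in the record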
Target sequence (P25779 123-467 limits assumed): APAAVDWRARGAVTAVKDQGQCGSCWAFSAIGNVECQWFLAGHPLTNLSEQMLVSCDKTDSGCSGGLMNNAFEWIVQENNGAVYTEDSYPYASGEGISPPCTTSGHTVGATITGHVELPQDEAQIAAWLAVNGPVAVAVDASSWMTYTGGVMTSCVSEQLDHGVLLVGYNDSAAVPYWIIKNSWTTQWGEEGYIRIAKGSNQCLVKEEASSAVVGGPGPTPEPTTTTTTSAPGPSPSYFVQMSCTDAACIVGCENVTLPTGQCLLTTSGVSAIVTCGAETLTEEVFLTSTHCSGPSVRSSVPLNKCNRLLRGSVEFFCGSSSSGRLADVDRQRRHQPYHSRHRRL
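Purified cruzain at 1.5 nM, pre-incubated 15 min with compound at room temperature in 100 mM sodium acetate pH 5.5, 5 mM DTT, 0.00005% Triton X-100. Reaction started with 2 uM Z-FR-AMC; AMC fluorescence increase over 60 s gives rate.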
Marburg entry inh: qHTS for inhibitors of binding or entry into cells for Marburg Virus; Marburg virus pseudotyped entry inhibition, cell reporter; control for the full effect not named in the record; about a third of the inactives were read at about 46 µM; Potency, µM (titrated, usually from 37.8 µM), inactives show at the top dose activity change, negative = inhibition, most hits filed as inhibitors; 1.8% of 300,000 active; AID 540276, 2011; active = well fitted inhibition curve with a large enough effect; inconclusive = small, poorly fitted or top-dose-only effect, or effect the other way; inactive = flat fitted curve, though single readings scatter; tested in HEK293 cells; about a fifth of its hits are not listed in these tables; further: on the % scale 0 is the no-effect control and ±100 the full control effect; luciferase read-out
RE007 growth inh: qHTS Assay for Inhibitors of the HIV-1 protein Vpr; AID 651644, 2012; 0.21% of 360,000 active; S. pombe RE007 Vpr strain, BacTiter-Glo ATP luminescence, 24 h; control for the full effect not named in the record; Potency, µM (highest dose often 92.2 µM), for the others: at the top dose activity change, negative = less growth; active = well fitted falling curve with a large enough effect; inconclusive = small, poorly fitted or top-dose-only effect; inactive = no such curve, though single readings can be large or run the other way;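 further: on the % scale 0 is the no-effect control and ±100 the full control effect; nearly all actives have a fitted effect of over 50% in size; the assay follows cell death caused by Vpr and the record does not say whether a fall means rescue or toxicity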
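Fission yeast RE007 carrying one integrated HIV-1 vpr copy, seeded at OD 0.01 in PMG+AL medium with 23 nL pinned compound. Grown 24 h at 30 degrees; viability read by BacTiter-Glo luminescence after 5 min.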
StopGo reporter: High Throughput Screening for Foot and Mouth Disease Virus Antivirals; Potency, µM (highest dose often 57.9 µM), for inactives: at the top dose signal change, negative = less light; 1.2% of 410,000 active; human cells with a luciferase reporter of 2A StopGo recoding; control for the full effect not named in the record; active = well fitted falling curve with a large enough effect; inconclusive = small, poorly fitted or top-dose-only effect; inactive = no such curve, though single readings can be large or run the other way; tested in HEK293T cells; further: on the % scale 0 is the no-effect control and ±100 the full control effect; nearly all actives have a fitted effect of over 45% in size; luciferase light after 4 h
SARS PLpro yeast: qHTS of Yeast-based Assay for SARS-CoV PLP | S. cerevisiae expressing SARS-CoV PLpro, growth rescue; control for the full effect not named in the record | Potency, µM (highest dose often 32.9 µM), without a hit: at the top dose activity, positive = growth rescue | 0.19% of 330,000 active; active means well fitted rising curve with a large enough effect; inconclusive means small, poorly fitted or top-dose-only effect; inactive means no such curve, though single readings can be large or run the other way; further: 0% is about no effect; nearly all actives have a fitted effect of over 55% in size; growth read by luminescence after 48 h
LASV entry inh: qHTS for Inhibitors of binding or entry into cells for Lassa Virus; AID 540256, 2011; Lassa virus pseudotype entry inhibition, cell reporter; control for the full effect not named in the record; Potency, µM (titrated, usually from 37.9 µM), without a hit: at the highest dose activity change, negative = inhibition, actives largely listed as inhibitors; 1.2% of 300,000 active; active means well fitted inhibition curve with a large enough effect; inconclusive means small, poorly fitted or top-dose-only effect, or effect the other way; inactive means flat fitted curve, though single readings scatter; tested in HEK293 cells; further: on the % scale 0 is the no-effect control and ±100 the full control effect; nearly all actives have a fitted effect of over 50% in size; luciferase read-out
NS1 inh: qHTS Assay for Inhibitors of Influenza NS1 Protein Function; Potency, µM (doses to about 46.1 µM), for inactives: top-dose activity, positive = more growth; S. cerevisiae slowed by influenza A NS1, growth recovery by OD600; 0.4% of 270,000 active; active means well fitted rising curve with a large enough effect; inconclusive means small, poorly fitted or top-dose-only effect; inactive means no such curve, though single readings can be large or run the other way; further: nearly all actives have a fitted effect of over 50% in size
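A cell-based growth assay was used: compounds that relieve NS1-induced slow growth of budding yeast raise OD600. Assay medium was yeast nitrogen base with ammonium sulphate and -URA supplement, pH 6.0, with 2% galactose.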
Cruzain Triton: qHTS Assay for Promiscuous and Specific Inhibitors of Cruzain (with detergent); Cruzipain (Trypanosoma cruzi), P25779; purified cruzain, Z-FR-AMC fluorescence, 0.01% Triton; Potency, µM, without a hit: max response, negative = inhibition, usual class: inhibitors; 0.43% of 200,000 active; AID 1478, 2009;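 further: plate controls were neutral wells for no effect and buffer without enzyme for full effect; nearly all actives have a fitted effect of over 40% in size; top concentration of the series not given in the record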
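Steps: dispense cruzain (1.5 nM final) in acetate buffer pH 5.5 with DTT and 0.01% Triton X-100; pin-transfer compounds; incubate 15 min RT; add Z-FR-AMC (2 uM final); read fluorescence every 30 s, using the 60 s intensity change.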
An asterisk follows results filed as active; ? = inconclusive; nt = not tested or not shown; & = joins results of further samples; [ ] = remark or other dose. Unless noted, the call rests on the fitted dose curve; in most records, active means well fitted curve in the direction sought with a large enough effect; inconclusive means small, poorly fitted or top-dose-only effect, or another doubt; inactive means no such curve, though single readings can be large; an effect the other way counts as inactive or inconclusive. Potency means the concentration at half of the fitted maximal effect.

SMILES	Cruzain noTriton	Marburg entry inh	RE007 growth inh	StopGo reporter	SARS PLpro yeast	LASV entry inh	NS1 inh	Cruzain Triton
COc1ccc(N=C2SC(CC(=O)Nc3ccc(F)cc3)C(=O)N2Cc2ccco2)cc1 (stereo not given)	-18%	-8%	-16%	-26%	-2%	?	8%	-6.0%
CN1C(=O)c2cccc3c(S(=O)(=O)N(C)C)ccc1c23	nt	-3%[46.1 µM]	2%	-3%	-2%	11%[46.1 µM]	-11%	nt
CCC(=O)N(CCc1ccccc1C)Cc1cc2ccc(C)cc2[nH]c1=O	nt	nt	11%	?	-1%	nt	?	nt
O=C(NNC(=O)c1sc2ccccc2c1Cl)Nc1ccc(Cl)cc1	?	16%	-15%	-16%	-12%	-12%	19%	4.4%
Cc1cccc(NC(=O)c2sc(C)nc2C)c1	-2%	?	-5%	27%	-11%	3%	24%	3.2%
COc1ccc(CNC(=O)CSc2n[nH]c(N)n2)cc1	nt	16%[46.1 µM]	5%	12%	20%	nt	14%	nt
CCN(CC)CCOC(=O)c1ccc(NC(=O)CSc2nnc(-c3cccs3)n2CC)cc1	nt	?	1%	8%	nt	6%	nt	nt
O=C(NC1CCN(Cc2ccccc2)CC1)C1CCN(S(=O)(=O)c2ccc(Cl)cc2)CC1	nt	?	-6%	?	0%	?	2%	nt
CC(NC(=O)/C(C#N)=C/c1ccc(C(=O)O)cc1)c1ccccc1 (stereo not given)	-15%	2%	2%	?	7%	1%	-21%	3.2%
CCOc1ccc(CC(=O)Nc2c(C(=O)c3ccc(C)cc3)oc3ccccc23)cc1OCC	?	?	nt	0%	nt	14%[46.1 µM]	nt	-0.9%
COc1ccc(C(=O)Oc2cccc(/C=N/NC(N)=S)c2)cc1	16µM*	?	-12%	-5%	14%	11%	12%	?
Cc1ccc(-n2c(C)csc2=N)cc1	1%	?	-3%	59%[activator]	16%	-16%	-6%	-4.7%
Cc1oc(-c2cccc(Cl)c2)nc1CS(=O)(=O)CC(=O)NCCN1CCOCC1	nt	nt	10%	-16%	-3%	nt	2%	nt
Cc1cc(CN2CCN(c3cccc(C)c3C)CC2)cs1	12%	nt	nt	-23%	nt	-1%[46.1 µM]	nt	-0.4%
Oc1ccc(N=Nc2nc(-c3ccccc3)c(-c3ccccc3)[nH]2)cc1	-1%	?	5%	?	-60%	?	25%	-5.6%
CN(C)c1ccc(C(=O)Nc2nc3c(s2)CCCC3)cc1	-10%	?	-26%	-64%	-12%	?	-31%	-18%
COC(=O)CN1C(=O)S/C(=C/c2ccc(N3CCCCC3)o2)C1=O	?	12%	-25%	21%	-7%	?	19%	-7.3%
COc1ccc(OC)c(NC2=C(c3ccccc3)C(=O)c3ccccc32)c1	?	?	nt	-20%	nt	-14%[46.1 µM]	nt	-7.9%
COc1ccc(C2CC(c3cccs3)=Nc3ccccc3S2)cc1 (stereo not given)	?	nt	14%	20%	-15%	nt	?	1.8%
COc1ccc2cc1Oc1ccc(cc1)CC1c3c(cc(OC)c4c3Oc3cc5c(cc3O4)CCNC5C2)CCN1C (stereo not given)	nt	nt	2%	?	0%	nt	0%	nt
CC(C)(C)c1ccc(S(=O)(=O)NCc2ccc(C(=O)N3CCCC3)cc2)cc1	8%	-17%	3%	15%	-6%	?	2%	-1.9%
O=C(CSc1nc2c(c(C(F)(F)F)n1)CCc1ccccc1-2)NCc1ccc(F)cc1	4%	?	4%	-20%	18%	10%	0%	-10%
Cc1ccc(S(=O)(=O)N2CCC(C(=O)Nc3nnc(COc4ccccc4)s3)CC2)cc1	-9%	4%&0%	-4%	0%	0%	-6%	-2%	4.2%
COc1ccc(NC(=O)C2CCCN(S(=O)(=O)c3ccc(Cl)cc3)C2)cc1OC (stereo not given)	nt	nt	6%	-25%	0%	nt	14%	nt
O=C(Cn1c(SCc2ccccc2F)nc2ccncc21)Nc1ccccc1C(F)(F)F	7%	5%[46.1 µM]	nt	31%[activator]	nt	?	nt	-17%
O=C(c1ccc(OC2CCN(Cc3ccc(C(F)(F)F)cc3)CC2)cc1)N1CCCCC1	nt	8%[46.1 µM]	-8%	-28%	-19%	2%[46.1 µM]	4%	nt
Cc1c(OC(C)C(=O)NCCN2CCOCC2)ccc2c(-c3ccccc3)cc(=O)oc12 (stereo not given)	nt	nt	-13%	-6%	0%	nt	4%	nt
CCOC(=O)CSc1nnc(-c2c[nH]c3ccccc23)n1CC	-3%	nt	-3%	-18%	-5%	nt	1%	-2.1%
O=C(C1CC1)N1CCN(c2ccnc3cc(Cl)ccc23)CC1	nt	2%	15%	-14%	1%	1%	nt	nt
COc1cc(/C=C/C(=O)Nc2ccc(OC)c(S(=O)(=O)N3CCOCC3)c2)ccc1OCC#N	nt	?	44%	?	-6%	?	nt	nt
Cc1cc(C(=O)COC(=O)c2ccc(O)cc2)c(C)n1CCc1ccc(F)cc1	nt	1%[46.1 µM]	39%	1%	0%	13%	nt	nt
CCOc1cc(/C=N\NC(=O)c2ccc(NC(=O)CC)cc2)ccc1OC(=O)c1ccccc1	?	?	-7%	17%	3%	23µM*	6%	-0.9%
C/C=C(\C)C(=O)NNC(=O)c1sc(-c2ccccc2)nc1C	nt	?	4%	14%	0%	11%[46.1 µM]	-3%	nt
COc1ccc(C2Nc3ccccc3NC3=C2C(=O)CC(C)(C)C3)cc1O (stereo not given)	nt	?	-10%	-5%	-11%	?	1%	nt
NS(=O)(=O)c1ccc(CCNC(=O)C(=O)NCC2OCCN2S(=O)(=O)c2ccc(F)cc2)cc1 (stereo not given)	nt	nt	5%	-20%	-4%	nt	-6%	nt
O=c1[nH]c2ccc(S(=O)(=O)N3CCCCC3)cc2s1	nt	nt	14%	-11%	2%	nt	8%	nt
CN1CCc2nc3sc(C(=O)Nc4ccccc4C(F)(F)F)c(N)c3cc2C1	-15%	-3%[46.1 µM]	nt	-31%	nt	16%[46.1 µM]	nt	-8.6%
CC1(C)OC1(C#N)c1ccccc1 (stereo not given)	nt	0%[46.1 µM]	3%	-3%	nt	6%[46.1 µM]	nt	nt
CN(C)c1ccc(CNC(=O)C2CCN(S(=O)(=O)c3ccc4c(c3)CCCC(=O)N4)CC2)cc1	nt	2%[46.1 µM]	-1%	-8%	-5%	16%[46.1 µM]	9%	nt
CCCCCOC(=O)CSc1nc2c(c(=O)[nH]c(=O)n2C)n1Cc1ccc(Cl)cc1	19%	35%&35%	2%	-15%	17%	-3%	?	-4.0%
COc1ccc(CCc2nnc(CCC(=O)NCc3ccc4ncccc4c3)o2)cc1	nt	21%[46.1 µM]	5%	9%	0%	10%	-1%	nt
O=C(c1cc(-c2ccco2)on1)N1CCN(c2ccccc2)CC1	-5%	nt	-4%	-13%	-16%	nt	-29%	0.1%
COc1ccccc1CNC(=O)c1cccc(-c2ccc(C)c3ccccc23)n1	-19%&-7%	17%&17%	nt	nt	13%	0%	0%	0.4%&-3.3%
CCN(CC(=O)NCc1ccc(Cl)cc1)CC(=O)Nc1ccc(C(N)=O)cc1	nt	10%[46.1 µM]	1%	-1%	1%	4%	nt	nt
CC(NC(=O)CCCn1c(=O)c2cccn2c2cccnc21)c1ccccc1 (stereo not given)	-1%	nt	nt	2%	nt	-4%[46.1 µM]	nt	-2.7%
CC(C(=O)NCc1ccccc1F)n1ccc2cc(S(=O)(=O)N3CCCC3)ccc21 (stereo not given)	2%	nt	nt	?	nt	-1%[46.1 µM]	nt	-4.5%
Cc1ccc2oc(-c3ccc(C)c(NC(=S)NC(=O)c4cccs4)c3)nc2c1	?	nt	5%	55%[activator]	14%	nt	10%	-1.4%
O=C(NC(=S)Nc1cc([N+](=O)[O-])ccc1Cl)c1ccccc1	-24%	?	-3%	-3%	8%	?	-7%	7.9%
Cc1oc(C(C)(C)C)c(CN2CCCC2)c1C(=O)O	5%	1%[46.1 µM]	4%	-18%	1%	4%	2%	-2.1%
COc1ccc(CNC(=O)C2CCN(C(=O)c3ccco3)CC2)cc1	nt	-13%[46.1 µM]	-3%	-5%	2%	?	14%	nt
CCCCn1c(C)c(C(=O)O)c2cc(OC)ccc21	-6%	-8%	-20%	nt	-1%	15%	5%	-6.0%
CCOC(=O)C1CSC(CC(=O)Nc2ccc(OCC)cc2)C(=O)N1 (stereo not given)	-1%	-3%	-10%	9%	-1%	-16%	0%	0.1%
Cc1nnnn1/C(=C\c1ccccc1)C(=O)OCC(=O)NC1CCCCC1	nt	11µM*	3%	8.9µM*	-4%	?	nt	nt
O=C1NC(=S)N/C1=C\c1ccccc1OCc1ccc(C(=O)O)cc1	nt	-11%	-14%	-16%	1%	2%	7%	nt
O=C1C=C(NCc2ccc3c(c2)OCO3)CC(c2ccccc2)C1 (stereo not given)	nt	?	6%	-7%	1%	-15%	-1%	nt
CN1CCN(C(=O)CCNC(=O)Cn2ccc3ccccc3c2=O)CC1	-3%	?	9%	7%	5%	?	-5%	3.4%
COc1ccccc1-c1nn2c(-c3ccccc3Cl)nnc2s1	-16%	1%	nt	nt	-4%	nt	13µM*	0.7%
CCOc1ccc(Sc2cc(C(=O)NC(C)c3ccccc3)c3ccccc3n2)cc1 (stereo not given)	-7%	nt	nt	-2%	nt	12%[46.1 µM]	nt	2.3%
CCOc1ccccc1NC(=O)CSc1nnnn1-c1ccc(C(=O)OC)cc1	13%	18%	8%	?	-7%	-3%	-5%	-4.0%
CCN(CC)C(=O)c1ccc(-c2nnc(OC)c3ccccc23)cc1	nt	-9%[46.1 µM]	6%	-9%	2%	-2%	-4%	nt
CCN(CC)CCN(C(=O)c1ccc(C(=O)c2ccccc2)cc1)c1nc2c(OC)cccc2s1	nt	-26%[46.1 µM]	-8%	-12%	6%	22%[46.1 µM]	3%	nt
CCCCOC(=O)c1ccc(Nc2nc3ccc(C(=O)c4ccccc4)cc3n3cnnc23)cc1	-3%	nt	nt	-18%	nt	?	nt	-2.4%
